High-throughput results deposited in PubChem BioAssay by National Center for Advancing Translational Sciences (NCATS).
Sfp PPTase inh: qHTS Assay for Inhibitors of Bacillus subtilis Sfp phosphopantetheinyl transferase (PPTase); 4'-phosphopantetheinyl transferase ffp (Bacillus subtilis), Q9F4F7; Biochemical Sfp PPTase activity, qHTS; Potency, µM, for inactives: max response, negative = inhibition, actives largely listed as inhibitors; hit rate 3.5% among 310,000; active means well fitted inhibition curve with a large enough effect; inconclusive means small, poorly fitted or top-dose-only effect, or another doubt; inactive means no such curve, though single readings can be large or run the other way;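 further: the enzyme is Sfp with the accession as filed and its product quenches rhodamine fluorescence; potency means the concentration at half of the fitted maximal effect; 0% = enzyme reaction without inhibitor and -100% = no enzyme wells; top concentration of the series not given in the record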
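Fluorescence-quenching assay with 15 nM Sfp, 5 uM rhodamine-CoA and 12.5 uM BHQ-2-labelled ybbR peptide in pH 7.6 Hepes/MgCl2 buffer. Enzyme was pre-incubated with compound for 15 min at room temperature. Rate was taken from the 30-min fluorescence change (525/598 nm).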
TRPV1 potentiator: HTS Assay for Compounds that Act as Potentiators of the Vanilloid Receptor 1 | Transient receptor potential cation channel subfamily V member 1 (Homo sapiens), Q8NER1 | potentiation, % at 8.33 µM | AID 540277, 2011 | hit rate 0.02% among 320,000 | TRPV1-expressing cells, Fluo-8 calcium influx, capsaicin EC20 potentiation; host cell line not named in the record; control for the full effect not named in the record; active means potentiation above 80%; inconclusive means 30% to 80%; inactive means below 30%; further: 0% is about no effect
Target sequence (Q8NER1 whole entry, looked up): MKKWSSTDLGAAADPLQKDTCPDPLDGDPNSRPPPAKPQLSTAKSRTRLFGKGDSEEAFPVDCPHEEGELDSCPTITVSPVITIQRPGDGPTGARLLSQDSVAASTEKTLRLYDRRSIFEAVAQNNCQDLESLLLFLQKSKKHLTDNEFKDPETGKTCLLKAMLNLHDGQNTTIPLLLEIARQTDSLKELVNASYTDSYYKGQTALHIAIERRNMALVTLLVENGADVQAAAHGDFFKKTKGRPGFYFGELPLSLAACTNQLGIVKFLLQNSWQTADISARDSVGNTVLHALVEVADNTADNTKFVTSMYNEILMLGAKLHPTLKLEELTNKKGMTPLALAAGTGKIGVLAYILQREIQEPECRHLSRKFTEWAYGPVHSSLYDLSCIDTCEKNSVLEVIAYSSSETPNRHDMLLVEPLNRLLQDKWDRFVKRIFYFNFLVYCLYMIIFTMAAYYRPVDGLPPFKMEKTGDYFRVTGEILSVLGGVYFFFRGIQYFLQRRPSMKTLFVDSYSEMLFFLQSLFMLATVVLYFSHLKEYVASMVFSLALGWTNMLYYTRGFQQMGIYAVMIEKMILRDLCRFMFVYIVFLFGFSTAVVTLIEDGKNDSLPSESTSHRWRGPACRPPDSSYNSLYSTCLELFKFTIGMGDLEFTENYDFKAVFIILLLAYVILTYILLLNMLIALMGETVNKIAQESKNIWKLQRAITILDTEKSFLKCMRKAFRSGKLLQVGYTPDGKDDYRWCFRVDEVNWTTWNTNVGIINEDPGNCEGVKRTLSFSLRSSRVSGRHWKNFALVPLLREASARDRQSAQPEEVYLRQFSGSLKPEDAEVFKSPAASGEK
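TRPV1-expressing cells were cultured overnight at 35.5C and loaded with Fluo-8 calcium dye for 40 to 90 min at room temperature. After a 10 s baseline, compound was added and calcium influx was read kinetically for 3 min (ex 480/em 520 nm).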
gsp antag: qHTS for Antagonists of gsp, the Etiologic Mutation Responsible for Fibrous Dysplasia/McCune-Albright Syndrome: qHTS | gsp-mutant cells, cAMP HTRF, 30 min; control for the full effect not named in the record | Potency, µM (titrated, usually from 76.9 µM), for inactives: at the top dose activity change, negative = inhibition, actives largely listed as inhibitors | hit rate 0.4% among 340,000; active = falling curve of any shape with a large fitted effect; inconclusive = falling curve, mostly with a smaller effect; inactive = flat or rising curve; cell line not stated here;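 further: intracellular cAMP measured with PDE inhibitor Ro 20-1724 present during compound exposure; potency means the concentration at half of the fitted maximal effect; on the % scale 0 is the no-effect control and ±100 the full control effect; nearly all actives have a fitted effect of over 65% in size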
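HTRF cAMP measurement after 30 min RT detection following 30 min, 37C compound treatment alongside […] (added as 300 uM solution) in G418-selected cells seeded at 2000/well and grown 16–24 h.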
ClpP mod: qHTS Assay for Activators of ClpP | AID 651965, 2013 | Potency, µM (top dose mostly 57.5 µM), without a hit: top-dose activity change, negative = active | purified B. subtilis ClpP, FRET peptide cleavage, 20 min | ATP-dependent Clp protease proteolytic subunit (Bacillus subtilis (strain 168)), P80244 | hit rate 1.9% among 340,000; active = well fitted falling curve with a large enough effect; inconclusive = small, poorly fitted or top-dose-only effect; inactive = no such curve, though single readings can be large or run the other way; further: potency means the concentration at half of the fitted maximal effect; the source files actives as falling curves though it sought activators and does not explain the sign; nearly all actives have a fitted effect of over 65% in size; many hits overshoot -100%
Target sequence (P80244 whole entry, looked up): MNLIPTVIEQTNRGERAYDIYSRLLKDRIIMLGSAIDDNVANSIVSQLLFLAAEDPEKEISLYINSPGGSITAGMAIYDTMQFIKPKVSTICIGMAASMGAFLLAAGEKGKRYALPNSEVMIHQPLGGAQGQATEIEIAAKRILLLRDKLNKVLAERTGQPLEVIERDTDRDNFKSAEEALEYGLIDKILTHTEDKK
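ClpP 10 microg/mL final, pH 8 Tris/KCl buffer with BSA, glycerol, Tween-20; compound pinned in; FRET-FV substrate; RT 20 min; Ex320/Em430; ΔFRET vs ADEP 5.8 microM, DMSO, no enzyme.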
Menin-MLL FL inh: qHTS Assay for Inhibitors Targeting the Menin-MLL Interaction in MLL Related Leukemias: Competition With Fluorescein Labeled MLL-derived Peptide | 290,000 tested, under 10 active | Fluorescence polarization, fluorescein-MLL peptide displacement from menin | FP activity change, % at 61.4 µM | AID 1766, 2009; inconclusive = falling polarisation curve, or a change in total fluorescence; inactive = total fluorescence flat and polarisation flat or rising; no compound was filed as active; the % refers to the polarisation; negative = inhibition;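 further: % of control where 0% means no effect; inhibitors lower the polarisation; unlabelled MLL peptide was the positive control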
gsp ag: qHTS for Agonist of gsp, the Etiologic Mutation Responsible for Fibrous Dysplasia/McCune-Albright Syndrome: qHTS | Potency, µM (series often up to 76.9 µM), without a hit: at the top dose activation (cAMP increase), actives largely listed as activators | AID 624287, 2012 | hit rate 0.13% among 340,000 | gsp mutant cells, cAMP HTRF, 30 min; control for the full effect not named in the record; active = well fitted activation curve with a large enough effect; inconclusive = small, poorly fitted or top-dose-only effect, or another doubt; inactive = no such curve, though single readings can be large or run the other way; cell line not stated here;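 further: phosphodiesterase inhibitor Ro 20-1724 added with compounds to block cAMP breakdown; potency means the concentration at half of the fitted maximal effect; nearly all actives have a fitted effect of over 60% in size; about a fifth of the inactives were tested at one dose only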
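Cells stably selected in G418 were plated at 2000/well, grown 16-24 hr, then given compounds in DMSO with the PDE inhibitor […] (300 uM solution added) for 30 min at 37C; cAMP was read by HTRF.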
CtBP-E1A inh: qHTS Assay for Inhibitors of the CtBP/E1A Interaction; hit rate 0.49% among 340,000; AlphaScreen GST-E1A/His-CtBP binding, 1536-well; stronger effect = lower value; control for the full effect not named in the record; activity change, % (no concentration beside the values); in the data active means activity change below about -65%; inconclusive means about -30% to -65%; inactive means above about -30%; further: on the % scale 0 is the no-effect control and ±100 the full control effect; compound concentration not given in the record
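Protein mix (5X: 125 nM each GST-E1A, His-CtBP) was incubated with pinned compound 2 h at 37 deg C in dark, in 50 mM Tris pH 8.0 buffer with 300 mM NaCl. Glutathione donor and nickel acceptor beads followed; AlphaScreen signal read after 1 h.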
* hit, by the source's call; u = inconclusive; x = not tested or not shown; & = joins results of further samples; [ ] = remark or other dose.

item	SMILES	gsp ag	gsp antag	Menin-MLL FL inh	TRPV1 potentiator
1	Cn1c(=O)c2c(SCC(=O)NCc3ccco3)nc(CC(C)(C)C)nc2n(C)c1=O	-2%	-11%	0.9	x
2	CCN(CC)S(=O)(=O)c1cccc(-c2cn3cccnc3n2)c1	83%[15.4 µM]	15%	-2.8	-1
3	COc1cccc(-c2ccnc3[nH]n(-c4ccccc4)c(=O)c23)c1	3%	-4%	-0.2	-7
4	COc1ccc(/C=C/C(=O)OCC(=O)NC2CCCC(C)C2C)cc1S(=O)(=O)N1CCOCC1 (stereo not drawn)	20%	8%	0.6	-5
5	O=C(/C=C/c1cccc([N+](=O)[O-])c1)OCC(=O)N1CCCCC1	-19%	x	x	x
6	COc1ccc(OC)c(/C=N\Nc2nccs2)c1	0%	3%	x	x
7	CC(=O)c1cccc(NC(=O)Nc2cnn(Cc3ccc(F)cc3)c2)c1	x	x	6.4	3
8	N/C(=N\c1nc2ccccc2o1)NC(=O)c1ccccc1Br	-8%	-18%	0.0	x
9	Cc1cc(-c2ccccc2)c(C#N)c(N)n1	10%	13%	1.2	3
10	O=C(NCCCN1CCCC1=O)c1ccccc1NS(=O)(=O)c1ccc(Br)cc1	-14%	-21%	4.1	-11
11	Cc1ccc(Nc2nc(CSc3nnc(-c4cccs4)o3)cs2)cc1	-28%	-18%	-1.2	15
12	CCc1ccc(OC(=O)CN2C(=O)c3ccccc3C2=O)cc1	-3%[15.4 µM]	-2%	0.9	-12
13	COC(=O)\C(C(C)=O)=C(/C=C/C=C/N(C)C)N(C)C	-8%	-1%	u	-13
14	Cc1ccc2c(CC(=O)NCc3ccco3)coc2c1C	u	14%	7.0	-23
15	Cc1c(Cl)cccc1NC(=O)CNc1ccccc1F	-8%	-4%	3.0	-5

item	CtBP-E1A inh	ClpP mod	Sfp PPTase inh
1	-2	0.1%	u
2	-10	x	-3%
3	x	0.4%&0.3%	9%
4	x	-2.9%	-9%
5	-24	0.5%	x
6	-2	x	x
7	x	x	-7%
8	4	x	16%
9	1	32µM*	2%
10	-2	-3.4%	21%
11	-15	-6.7%	-18%
12	13	0.8%	-4%
13	6	0.6%	2%
14	-4	0.3%	-19%
15	-1	-3.1%	21%

Three entries already listed, arranged by the value under gsp ag, falling.
| item | Molecule | gsp ag |
| --- | --- | --- |
| 8 | N/C(=N\c1nc2ccccc2o1)NC(=O)c1ccccc1Br | -8% |
| 5 | O=C(/C=C/c1cccc([N+](=O)[O-])c1)OCC(=O)N1CCCCC1 | -19% |
| 11 | Cc1ccc(Nc2nc(CSc3nnc(-c4cccs4)o3)cs2)cc1 | -28% |

(more compounds)
item	SMILES	gsp ag	gsp antag	Menin-MLL FL inh	TRPV1 potentiator
16	COc1cccc(-c2nn3c(-c4cccc(C)c4)nnc3s2)c1	11%	-7%	1.5	-2
17	CC(C)=CCN1CCN(Cc2ccc(Oc3ncccn3)cc2)CC1CCO (stereo not drawn)	3%	6%	5.0	6
18	CCOc1ccccc1C(=O)N1c2ccccc2Sc2ccccc21	u	-2%	-0.9	-15
19	CC1Cc2ccccc2N1S(=O)(=O)c1cccc2nsnc12 (stereo not drawn)	-29%	-25%	1.7	-4
20	COc1cc(-c2nnc(-c3cc(OC)c(OC)c(OC)c3)o2)cc(OC)c1OC	19%	11%	-0.5	0
21	NC(=O)C1(N2CCCCC2)CCN(Cc2nc3ccccc3c(=O)[nH]2)CC1	-17%	4%	0.3	2
22	COc1ccc(OC)c(-c2cn(S(=O)(=O)c3ccccc3)nc2N)c1	6%	-20%	0.1	4
23	CCOC(=O)c1[nH]c2ccc(OCC)cc2c1CCCN1C(=O)c2ccccc2C1=O	-25%	9%	-0.5	3
24	CN1CCN(C(=O)CNC(=O)c2cccs2)CC1	7%[15.4 µM]	10%	x	x
25	CC(=O)c1ccc(OCCCC(=O)n2nnc3ccccc32)cc1	u	-7%	0.1	-1
26	CCn1nc(C(=O)N2CCN(Cc3nc4ccccc4s3)CC2)c2ccccc2c1=O	-4%	-2%	x	11
27	O=C(/C=C/NNC(=O)c1ccc(Cl)cc1)c1ccccc1	-60%[inhibitor]	-6%	20	-6
28	COc1ccc(S(=O)(=O)Nc2nccs2)cc1OC	-33%[inhibitor]	-1%	u	-13
29	Cc1cc(NS(=O)(=O)c2ccc(NC(=O)/C=C/c3ccc(Br)cc3)cc2)no1	-34%[inhibitor]	-36%	5.7	13
30	COc1cc(/C=N/n2c(-c3n[nH]c4c3CCC4)n[nH]c2=S)cc(OC)c1O	1%	u	1.9	-5

item	CtBP-E1A inh	ClpP mod	Sfp PPTase inh
16	-6	-3.4%	-18%
17	5	x	9%
18	0	-0.9%	-8%
19	-13	1.4%	-5%
20	-1	25µM*	17%
21	3	-5.8%	-13%
22	-13	2.0%	12%
23	-5	-0.7%	-8%
24	10	-0.1%	x
25	3	0.6%	-5%
26	-1	-2.3%	x
27	x	0.2%	8%
28	-3	-1.2%	-5%
29	-5	-0.7%	8%
30	-4	x	56µM*

Carrying on:
item	SMILES	gsp ag	gsp antag	Menin-MLL FL inh	TRPV1 potentiator
31	CSc1ncnc2c1ncn2CCCNCCCN1CCCC1=O	-6%	x	x	x
32	COc1ccc(S(=O)(=O)N2CCCCC2)cc1NC(=O)c1c(F)cccc1Cl	-27%	0%	x	15
33	CC(C)c1ccc(NC2CCCN(C(=O)c3ccco3)C2)cc1 (stereo not drawn)	21%	-2%	x	-18
34	Cc1[nH]c2c(Br)cccc2c1[C@H]1[C@@H](CC#N)C1(C)C	4%	u	3.3	15
35	Cc1ccccc1NS(=O)(=O)c1ccc(C(=O)NCC(c2ccco2)N2CCCCC2)cc1 (stereo not drawn)	1%	7%	x	-2
36	CC1CCCCC1NC(=O)CNC(=O)c1cccs1 (stereo not drawn)	0%[15.4 µM]	7%	x	4
37	COc1ccccc1NC(=O)c1cc(N)cc(C(=O)Nc2ccccc2OC)c1	-2%	u	x	x
38	CCCCC[C@@H](/C=C/C1C(=O)C=C[C@H]1C/C=C\CCCC(=O)OC)OC(C)=O (stereo partly drawn)	x	-3%	x	x
39	COc1ccc(C(C(=O)NC2CCCCC2)N(C(=O)Cc2c[nH]c3ccccc23)c2ccccc2C)cc1OC (stereo not drawn)	-45%[inhibitor]	-12%	5.2	-11
40	Cc1ccc(S(=O)(=O)N2[C@@H](c3ccc(F)cc3)C(C(=O)O)=CC[C@H]2c2cccc(C)c2)cc1	-16%	3%	x	8
41	COc1ccc(N2CCN(C(=O)c3ccc(CSc4ccccc4)cc3)CC2)cc1	-8%	6%	3.6	4
42	O=CN1Cc2ccccc2-c2ccccc2C1	4%[15.4 µM]	8%	-0.7	4
43	C=CCN1C(=O)CSc2ccc(C(=O)N3CCC(C)CC3)cc21	2%	-4%	5.9	-7
44	CCC(=O)c1ccc(OCC(O)CN2CCN(S(=O)(=O)c3ccc(NC(C)=O)cc3)CC2)cc1 (stereo not drawn)	-13%	-13%	-0.4	-9
45	Cn1cnnc1SCNC(=O)C(F)(F)F	-8%	10%	2.6	2

item	CtBP-E1A inh	ClpP mod	Sfp PPTase inh
31	-2	-0.1%	x
32	0	-2.7%	x
33	x	1.3%	4%
34	-12	1.2%	-1%
35	2	1.2%	x
36	2	1.1%	x
37	0	-5.3%	x
38	3	0.8%	x
39	3	-4.4%	7%
40	-1	-1.7%	x
41	4	0.3%	-9%
42	3	-3.1%	23%
43	2	0.4%	13%
44	-6	0.9%	9%
45	7	0.9%	10%

(next part)
item	SMILES	gsp ag	gsp antag	Menin-MLL FL inh	TRPV1 potentiator
46	Cc1ccc2nc(Cn3cc(C(F)(F)F)ccc3=O)cc(=O)n2c1	u	-3%	3.8	1
47	CN1Cc2ccccc2N(CC(=O)NCc2ccccc2)C1=O	29%	-1%	-1.3	-14
48	CN(C(=O)c1ccc2c(c1)CCO2)C(C)(C)C	-12%[15.4 µM]	10%	-1.0	-11
49	Cn1c(=O)[nH]c2c(Cl)nccc21	u	6%	-4.7	19
50	CC(C)CCn1c(Br)nc2c1c(=O)n(CC(N)=O)c(=O)n2C	1%	1%	-1.4	-5
51	Cn1c(-c2ccc([N+](=O)[O-])cc2)nc2ccccc21	2.2µM*	13%	-0.2	2
52	CC(=O)Oc1ccc(NC(=O)CSc2ccccc2)cc1	-74%[inhibitor]	-5%	0.9	10

item	CtBP-E1A inh	ClpP mod	Sfp PPTase inh
46	0	x	18%
47	-2	-3.5%	-7%
48	5	1.0%	11%
49	-12	-2.9%	3%
50	-9	0.8%	10%
51	1	x	19%
52	3	0.6%	22%

Entries listed so far that bear a hit mark in Sfp PPTase inh.
no. | Compound | gsp ag | Menin-MLL FL inh | CtBP-E1A inh | Sfp PPTase inh
30 | COc1cc(/C=N/n2c(-c3n[nH]c4c3CCC4)n[nH]c2=S)cc(OC)c1O | 1% | 1.9 | -4 | 56µM*
